VACV mCherry inh = inhibitors of vaccinia virus infection (mCherry reporter signal). Vaccinia virus mCherry reporter infection, fluorescence; about a quarter of the inactives have no number. Potency, µM (titrated, usually from 36.5 µM), for inactives: top-dose activity change, negative = inhibition, most hits filed as inhibitors. 310,000 tested, 0.63% active. AID 720579; active = well fitted inhibition curve with a large enough effect; inconclusive = small, poorly fitted or top-dose-only effect; inactive = no such curve, though single readings can be large or run the other way; tested in A549 cells; also: nearly all actives have a fitted effect of over 35% in size; inactives centre near -10
VACV Venus inh = inhibitors of vaccinia virus (Venus reporter) | Vaccinia virus Venus reporter expression, fluorescence | Potency, µM (doses to about 36.5 µM), inactives show at the highest dose activity change, negative = inhibition, actives largely listed as inhibitors | 330,000 tested, 0.46% active | AID 720580; active means well fitted inhibition curve with a large enough effect; inconclusive means small, poorly fitted or top-dose-only effect; inactive means no such curve, though single readings can be large or run the other way; tested in A549 cells; also: nearly all actives have a fitted effect of over 30% in size; inactives centre near -10
The depositor's hits bear a star; i = inactive; ? = inconclusive; . = no result given; & = joins results of further samples; [ ] = dose if it differs, or a comment. % is scaled to controls: 0 for no effect and ±100 for the full control effect; potency is read from the fitted curve at half-maximal effect.

SMILES | VACV mCherry inh | VACV Venus inh
CCN(CC)c1ccc(/C=c2\sc3nc4ccccc4n3c2=O)c(O)c1 | -9.5% | -3.5%
O=C1CCCC/C=C\C[C@H](CC(=O)N(CCO)Cc2ccccc2)C(=O)N[C@@H](c2ccccc2)CO1 | i | -1.8%
CN(C)CCNC(=O)C1(C)Cc2c(-c3cccc(C(F)(F)F)c3)ccnc2O1 (configuration not stated) | -13.1% | -17.4%
NC1=NC(=O)C(Cc2ccc(F)cc2)S1 (configuration not stated) | -15.0% | -9.4%
CC(=O)Nc1ccc(S(=O)(=O)NCCC(=O)OCc2nc(N)nc(Nc3ccccc3C)n2)cc1 | -0.7% | -12.5%
Oc1ccccc1N=Cc1ccc[nH]1 | 2.4% | 3.7%
CC(Sc1nnc(COc2ccc(Cl)cc2)n1-c1ccccc1)C(=O)O (configuration not stated) | i | -10.3%
COc1cccc(NC(=O)c2c(C)cc(C)cc2CC(C)(C)C(=O)O)c1 | i | -8.0%
CC1CCN(c2ccc(NC(=O)c3ccccc3[N+](=O)[O-])cc2)CC1 | -23.6% | -4.1%
CCc1ccc(N(CC(=O)NC2CCCC2)S(=O)(=O)c2c(C)noc2C)cc1 | 8.3% | -7.6%
O=C(c1cccnc1)N1CCN(c2c(Cl)cccc2[N+](=O)[O-])CC1 | . | -19.1%
CN(CCS(=O)(=O)c1ccc(Cl)cc1)Cc1cccnc1 | ? | ?
CC(=O)c1cccc(NC(=O)CCS(=O)(=O)c2ccc(Br)s2)c1 | -0.4% | -9.6%&15.2%
C[C@@H]1CCCCO[C@H](CN(C)S(=O)(=O)c2cccs2)[C@@H](C)CN([C@H](C)CO)C(=O)c2cc(NC(=O)Nc3ccc4c(c3)OCO4)ccc2O1 | -10.7% | -14.3%
CSC1=N/C(=C\c2cccc(F)c2)C(=O)S1 | -15.5% | -12.3%
CCc1ccccc1NC(=O)Cn1c(=O)c2cccn2c2ccc(F)cc21 | -8.7% | -1.0%
Cc1cccc(NC(=O)CSCc2nc3c(nnn3Cc3ccc(F)cc3)c(=O)[nH]2)c1C | -3.1% | -4.3%
COc1ccccc1-c1c(C)oc2c(CN3CCN(CCO)CC3)c(O)ccc2c1=O | . | -6.6%
O=C(/C=C\Nc1ccccn1)c1ccc(Cl)cc1 | -14.1% | -13.1%
COC(=O)c1ccc(/C=N/N2CCN(Cc3ccc(C)cc3C)CC2)cc1 | i | -16.0%
CCN(CC)Cc1cc(Nc2c3ccccc3nc3c4ccccc4n(C)c23)cc(CN(CC)CC)c1O | -20.6% | 11.2µM*
O=c1cc(CO)oc(C(Nc2cccc(C(F)(F)F)c2)c2ccccn2)c1O (configuration not stated) | 7.8% | 0.9%
CN(C)C(=O)Oc1ccc(OCc2nc3ccccc3[nH]2)cc1 | -20.3% | -10.6%
CCNC(=O)C1(C)CCCN1Cc1ccccc1Cl (configuration not stated) | 12.6% | 0.2%

Some of the entries so far, with two lines to a compound:
Second line of a record: VACV mCherry inh | VACV Venus inh
- CC1CCN(c2ccc(NC(=O)c3ccccc3[N+](=O)[O-])cc2)CC1
  -23.6% | -4.1%
- CCN(CC)Cc1cc(Nc2c3ccccc3nc3c4ccccc4n(C)c23)cc(CN(CC)CC)c1O
  -20.6% | 11.2µM*

The list continues.
SMILES | VACV mCherry inh | VACV Venus inh
CCOC(=O)[C@H]1[C@H]2COc3cc(OC)ccc3[C@@H]2N2C(=O)CN(Cc3ccccc3)C(=O)[C@@]12C | -2.7% | -7.6%
C=CCN1N=C(c2ccc(Cl)s2)CSC1=O | -17.8% | -11.4%
COc1ccc(CC(=O)Nc2cccc(S(=O)(=O)N3CCCCCC3)c2)cc1OC | ? | -28.3%
O=C1NC(=O)N(c2ccc(Cl)cc2)C(=O)/C1=C\c1ccc(Sc2nc3ccccc3[nH]2)o1 | 104.6%[activator] | 402.0%[activator]
CCCc1c(O)c2ccccc2[nH]c1=O | . | -14.3%
Cn1c(Cn2nnc3ccccc32)nnc1SCC(N)=O | i | -8.4%
COc1cc(C2C(=O)N(C3CCC(C)CC3)CC(=O)N2CCc2ccc(Cl)cc2)ccc1OC(C)C (configuration not stated) | -1.2% | -5.5%
Cc1ccsc1/C=N/N1CCN(Cc2ccccc2)CC1 | 0.8% | 0.2%
CC1CCCC(NC(=O)C2CCC(CNc3c(N4CCCCC4)c(=O)c3=O)CC2)C1C (configuration not stated) | i | -17.4%
C=C(C)Cn1c2ccc(NC(=O)CCc3cccc(Cl)c3)cc2c(=O)n1C | -15.0% | -26.6%
CC1(C)CC2(C)OCCN2C(=S)N1 (configuration not stated) | -16.4%&-10.3% | 6.8%&-2.9%
CC(C)C[C@H]1CN([C@@H](CC(C)C)CN2CCC[C@@H]2CN2C(=O)C(=O)NC[C@@H]2Cc2ccccc2)C(=O)C(=O)N1CCc1ccccc1 | -25.7% | ?

Look-ups from the results shown:
`CC1CCCC(NC(=O)C2CCC(CNc3c(N4CCCCC4)c(=O)c3=O)CC2)C1C` (configuration not stated) | VACV Venus inh: -17.4%
`Cc1ccsc1/C=N/N1CCN(Cc2ccccc2)CC1` | VACV Venus inh: 0.2%
`CC(C)C[C@H]1CN([C@@H](CC(C)C)CN2CCC[C@@H]2CN2C(=O)C(=O)NC[C@@H]2Cc2ccccc2)C(=O)C(=O)N1CCc1ccccc1` | VACV mCherry inh: -25.7%

(more compounds)
SMILES | VACV mCherry inh | VACV Venus inh
COc1ccc(Cc2c(-c3ccccc3)nc3ccc(Br)cn23)c(C)c1 | -7.5% | -13.4%
Brc1ccc2c(c1)-n1nncc1CN(CC1CCCCC1)C2 | 13.5% | -14.1%
O=C(COc1ccccc1)Nc1ccc(CN2CCCCC2)cc1 | -18.1% | -20.0%
COc1ccc(S(=O)(=O)N(C)C[C@H]2Oc3ncc(-c4ccncc4)cc3C(=O)N([C@@H](C)CO)C[C@@H]2C)cc1 | -20.3% | -5.9%
Cc1cc(OC(=O)c2c(C)cc(OC(=O)c3c(C)cc(O)cc3O)cc2O)cc(O)c1C(=O)O | 6.9% | 4.6%
CN(c1ccc(C(=O)NCc2cccnc2)cc1)S(=O)(=O)c1ccc(Cl)cc1 | -3.7% | -18.8%
C=CCn1c(SCCC(=O)O)nnc1-c1cccs1 | . | -13.6%
COc1cc(/C=C/C(=O)OCC(=O)Nc2ccc(S(N)(=O)=O)cc2)ccc1O | -26.3% | -13.4%
CN1C(=O)[C@H]2[C@@H](c3ccc(C(F)(F)F)cc3)N[C@]3(CCCN(Cc4cccn4C)C3=O)[C@H]2C1=O | -21.0% | ?
COc1cc(/C=N/NC(=O)Cn2cnc3c2c(=O)n(C)c(=O)n3C)ccc1O | -17.3% | -1.3%
CCCCCCCCCCC/C=C\C/C=C\CCCC(=O)O | -19.5%[3.33 µM] | -5.6%[3.33 µM]
CCN(c1ccc(OCC(=O)OCC(=O)c2c(N)n(C)c(=O)n(C)c2=O)cc1)S(=O)(=O)c1ccccc1 | i | -5.7%
CCc1ccc(NC(=O)Cn2nnc(C(=O)NCc3ccco3)c2N)cc1 | -4.9% | -5.1%&-1.6%
Cc1c(C(=O)Nc2ccccc2Cl)oc2ccc(S(=O)(=O)N3CCCCC3)cc12 | ? | ?
CC(C)C[C@H]1CN([C@@H](Cc2ccc(O)cc2)CN2CCC[C@H]2CN2C(=O)C(=O)NC[C@@H]2Cc2ccccc2)C(=O)C(=O)N1CC1CCCCC1 | -8.5% | -10.1%
CC1(C)NC(=O)N(c2ccc([N+](=O)[O-])c(C(F)(F)F)c2)C1=O | ? | ?
Cc1ccc(OCC(=O)NCCCNC(=O)c2cnccn2)cc1C | -7.9% | 6.9%
COc1cc(Cl)c(NC(=O)CCS(=O)(=O)c2cc3c(cc2Cl)NC(=O)CO3)c(OC)c1 | -4.2% | 7.4%
CCOc1ccc(CNc2ccc(N3CCCC3)cc2)cc1 | 9.6% | 12.2%
CCC(CC)c1nnc(NC(=O)c2ccc([N+](=O)[O-])cc2)s1 | i | -8.4%
CC(=O)C1C(=O)CC(c2ccc(Cl)cc2)CC1=O (configuration not stated) | -9.1% | 0.0%
N#Cc1ccccc1NC(=O)c1ccccc1OCC(=O)Nc1ccc2c(c1)oc1ccccc12 | -11.5% | -4.2%
CCCc1cc(O)c2c(C)cc(=O)oc2c1 | ? | -12.4%
CC(=O)N1CCc2c(sc3c2c(=O)n(-c2ccccc2)c(=O)n3CC(=O)c2ccccc2)C1 | -13.4% | -4.5%
COCCn1c(SCC(=O)c2ccc(Cl)cc2)nnc1C(C)C | -10.9% | -2.1%
Clc1ccc2c(ccc[n+]2CCC2CCCCC2)c1 | 21.5% | -17.6%
Cc1ccc(NC(=O)COC(=O)c2cc(=O)c3cc(F)ccc3o2)cc1 | -23.4% | -5.5%
CC(=O)NC(CCS(C)(=O)=O)C(=O)Nc1cc(C)ccc1C (configuration not stated) | i | 5.5%
CC1(C)CC(=O)C=C(c2ccc(COC(=O)C3CC3)cc2)C1=O | i | -7.0%
CC(C)N(C(=O)COC(=O)[C@H](C)NC(=O)c1ccco1)c1ccccc1 | i | -9.8%
CN(CC(=O)Nc1cccc(F)c1)C(=O)Cc1ccsc1 | -11.5% | -14.4%
Cc1cc(C)c2nc(SCC(=O)NCCN3C(=O)CSC3=O)cc(C)c2c1 | ? | -24.8%
CC1(CC(=O)N/N=C/c2cc([N+](=O)[O-])c(O)cc2O)OCCO1 | 12.9% | -3.7%
C=C1C(=O)OC2C1CCC(C)=CCCC1(C)OC21 (configuration not stated) | -21.5% | -12.7%
CC(C)CCNC(=O)c1nn(C)c2c1CSc1ccccc1-2 | -10.9% | -11.0%
CCOC(=O)C(Sc1cc(-c2ccccc2)nc2ncnn12)C(C)=O (configuration not stated) | ? | ?

Arranged by length of the SMILES (smallest number first): 3 of the compounds above
SMILES | VACV mCherry inh | VACV Venus inh
CC(C)CCNC(=O)c1nn(C)c2c1CSc1ccccc1-2 | -10.9% | -11.0%
CC(=O)NC(CCS(C)(=O)=O)C(=O)Nc1cc(C)ccc1C (configuration not stated) | i | 5.5%
CC1(CC(=O)N/N=C/c2cc([N+](=O)[O-])c(O)cc2O)OCCO1 | 12.9% | -3.7%

The listing picks up with the two entries that preceded the break.
SMILES | VACV mCherry inh | VACV Venus inh
CC(C)CCNC(=O)c1nn(C)c2c1CSc1ccccc1-2 | -10.9% | -11.0%
CCOC(=O)C(Sc1cc(-c2ccccc2)nc2ncnn12)C(C)=O (configuration not stated) | ? | ?
COC(=O)CSc1nnc(-c2cccc(O)c2)o1 | -0.8% | -8.4%
Cc1cccc(-n2c(N)cc(=O)nc2SCC(=O)Nc2cc(C)on2)c1 | -10.9% | -12.9%
Cc1nc(N2CCN(c3ccccn3)CC2)c2c(C)c(C(=O)Nc3ccc(F)cc3)sc2n1 | -2.4% | -3.6%
CCc1nc2c(OCc3ccccc3C)cccn2c1N(C)C(=O)c1ccc(C)cc1 | -3.0% | 4.3%
COc1ccc(NC(=O)c2ccc(NC(=O)CN3CCN(c4ccccc4OC)CC3)cc2)cc1 | ? | -25.1%
CNCCC=C1c2ccccc2CCc2ccccc21 | -6.1%&-19.1% | ?
CCc1c(C)nc2ncnn2c1Nc1ccc(C)cc1 | -10.5% | -20.7%
Cc1nc2c(n1C1CCCCC1)C(=O)c1ccccc1C2=O | -7.2% | 3.1%
CCOc1ccc(C/C(N)=N/n2cnnc2)cc1 | i | -18.5%
O=C(CN(CCO)c1ccccc1)NC12CC3CC(CC(C3)C1)C2 | i | -8.9%
CC(=O)c1c(C)[nH]c(C(=O)OC(C)C(=O)Nc2cc(S(=O)(=O)N3CCCCC3)ccc2Cl)c1C (configuration not stated) | -13.1% | -9.5%
CC(C)CCN=CC1=C(O)CC(c2ccccc2)CC1=O (configuration not stated) | 0.1% | -0.1%
CN1CCCC1CCNS(=O)(=O)c1ccc(Br)cc1 (configuration not stated) | . | -8.4%
CCOC(=O)c1c(-c2ccc(-c3ccccc3)cc2)csc1NC(=O)CCN1CCOCC1 | ? | ?
COc1ccc(N2CCN(C(CNS(=O)(=O)c3cccs3)c3cccnc3)CC2)cc1 (configuration not stated) | . | -12.3%
CCN1C(=O)c2ccccc2S(=O)c2ccc(C(=O)N3CCN(c4ccccc4)CC3)cc21 (configuration not stated) | 0.2% | -1.8%
O=C(Cc1ccc(Cl)cc1)NCC(c1cccs1)S(=O)(=O)c1ccc(Cl)cc1 (configuration not stated) | -7.9% | -21.8%
CCc1ccc(N(C(=O)c2csnn2)C(C(=O)NC2CCCC2)c2cccnc2)cc1 (configuration not stated) | -4.8% | -15.2%
CC1CN(Cc2ccccc2)c2nc3c(c(=O)[nH]c(=O)n3C)n2C1 (configuration not stated) | ? | ?
COc1ccc(CNC(=O)CN2C(=O)NC3(CCCCCC3)C2=O)cc1 | -20.5% | -12.4%
CC(/C=C/c1ccccc1)=N/NC(=O)CNC(=O)c1ccc2c(c1)OCO2 | . | -19.0%
Cc1[nH]c2ccccc2c1CN(C)C | -13.8% | -8.4%
CCCc1nc2sc3c(c2c(=O)n1NC(=O)CCC(=O)OC)CCCC3 | 22.2% | -0.5%
CCOC(=O)c1[nH]c(C)c(CN(Cc2ccco2)C(=O)C(F)(F)F)c1C | ? | ?
O=C(CCc1nc2ccccc2c(=O)[nH]1)OCC(=O)N1CCc2ccccc21 | 1.2% | -4.2%
O=[N+]([O-])c1ccc(NN=Cc2cccc3ccccc23)cc1 | ? | -5.6%
COc1ccc(C(=O)n2c(SC)nc3cc4c(cc32)OCCO4)cc1 | i | -16.9%
Cc1cccc(C(=O)OC(C)C(=O)Nc2ccc(S(=O)(=O)N3CCCC3)cc2)c1O (configuration not stated) | -14.8% | -11.3%
Cc1ccccc1Nc1c(-c2ccc(N3CCOCC3)cc2)nc2ccc(Cl)cn12 | -25.1% | -13.5%
O=C1OC2(c3ccccc31)c1ccccc1-c1ccccc12 | -28.4% | -14.6%

Assay outcomes (PubChem BioAssay)
